YopH PTP inh: inhibitors of Yersinia enterocolitica YopH tyrosine phosphatase; fluorescence Ex485/Em525; inhibition, %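 (about 10 µM by stock and volumes)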; 0.16% of 140,000 active; AID 898;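 active = inhibition of 50% or more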;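 also: controls were vehicle for no effect and minimum signal wells for full effect; inactives centre near -20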
Mtb betalactam: beta-lactam sensitization of Mtb H37Rv | M. tuberculosis H37Rv growth with meropenem, percent inhibition; hits of this screen are not shown here | inhibition, % at 25 µM | 0.27% of 330,000 active | AID 434955;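 active = about 74% or more and at least 40 points above the plate without the antibiotic, then above 30% in a dose series; inconclusive = first-round hits that could not be retested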;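 also: growth measured after seven days incubation then overnight dye step; 0% = bacteria only wells and 100% = bacteria with antibiotic; twin plates without the antibiotic show which effects depend on it; some results filed as inactive read as strong as hits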
RecA splice inh: inhibitors of M. tuberculosis RecA intein splicing. P9WHJ3. inhibition, %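 (about 9 µM by stock and volumes)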. AID 2221. cell-free RecA intein splicing, fluorescence. 0.75% of 290,000 active; in the data active = inhibition above about 30%; inconclusive = no clear call, values can overlap the other calls;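 also: 0% = vehicle wells and 100% = reference inhibitor control wells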
Target sequence (P9WHJ3 whole entry, looked up, canonical isoform): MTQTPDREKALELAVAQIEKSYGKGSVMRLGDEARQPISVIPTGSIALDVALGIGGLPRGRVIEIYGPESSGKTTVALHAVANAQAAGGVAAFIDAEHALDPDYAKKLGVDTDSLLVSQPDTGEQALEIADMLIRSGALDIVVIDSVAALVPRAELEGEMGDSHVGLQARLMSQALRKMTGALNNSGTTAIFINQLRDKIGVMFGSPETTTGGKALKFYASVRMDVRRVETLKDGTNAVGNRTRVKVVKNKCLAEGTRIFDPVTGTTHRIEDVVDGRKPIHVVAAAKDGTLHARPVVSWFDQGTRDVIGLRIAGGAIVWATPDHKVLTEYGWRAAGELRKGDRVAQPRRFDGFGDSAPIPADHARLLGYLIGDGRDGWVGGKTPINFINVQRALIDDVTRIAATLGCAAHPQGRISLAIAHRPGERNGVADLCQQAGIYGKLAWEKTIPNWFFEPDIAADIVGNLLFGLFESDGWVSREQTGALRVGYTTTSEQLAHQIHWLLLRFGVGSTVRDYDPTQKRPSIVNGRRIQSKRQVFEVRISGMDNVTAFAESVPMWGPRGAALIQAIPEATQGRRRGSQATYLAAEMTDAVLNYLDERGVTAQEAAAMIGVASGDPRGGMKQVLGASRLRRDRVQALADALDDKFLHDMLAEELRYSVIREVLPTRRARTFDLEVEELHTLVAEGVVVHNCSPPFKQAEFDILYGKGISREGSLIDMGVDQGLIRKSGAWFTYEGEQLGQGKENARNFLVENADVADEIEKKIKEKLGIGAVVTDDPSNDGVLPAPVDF
Arbovirus inh: arbovirus infection inhibition. arbovirus infection cell-based antiviral screen. inhibition, % at 10 µM. 0.37% of 200,000 active. AID 1251;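 active = inhibition from about 30%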;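 also: bluetongue infection of BSR cells; cell survival read as ATP light after 72 h; 0% = infected wells without compound and 100% = uninfected wells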
Mtb H37Rv: M. tuberculosis H37Rv growth inhibitors, H37Rv strain (AID 1626); M. tuberculosis H37Rv growth inhibition; higher % means a stronger effect; inhibition, % at 10 µM, or IC50 in µM where a hit was titrated; 0.95% of 220,000 active;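 active = confirmed in a dose series; inconclusive = inhibition above 80% but not taken into the dose series; inactive = below 80% or under 30% at every dose of the series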;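 also: bacteria incubated seven days before Alamar blue readout; 0% = bacteria only wells and 100% = bacteria with antibiotic wells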
Arbovirus inh repeat: recorded beside Arbovirus inh, whose call it bears; inhibition, %; measured here: 10K subset replicate screen; many hits read low in the repeat;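 first of two repeat runs on a subset; 0% = infected and 100% = uninfected wells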
Starred values were filed as active, the others as inactive; ? = inconclusive; nt = not tested or not shown. A portion of the library; count on the stated rates, not on these rows.

SMILES | YopH PTP inh | Mtb betalactam | RecA splice inh | Arbovirus inh | Mtb H37Rv | others
CCN(CC)C(=O)c1ccc(-c2cccs2)s1 | nt | 14 | 3.0 | nt | 0%
CCOC(=O)c1cc(C#N)c(Oc2ccccc2OC)nc1-c1ccccc1 | -2 | -9 | 3.9 | -4 | 12%
CCN(CC(=O)Nc1ccc(S(=O)(=O)N2CCCC2)cc1)Cc1ccccc1 | nt | -5 | 1.5 | nt | nt
Cc1ccc(NC(=O)COC(=O)/C=C/c2cccs2)cc1 | -25 | -1 | 0.2 | -2 | 0%
CCc1ccc2[nH]c(=O)c(CN(Cc3ccco3)S(=O)(=O)c3ccc4c(c3)OCCO4)cc2c1 | -35 | -14 | -0.8 | -3 | 2%
Cc1cccc(N(CC(=O)NCc2ccc3c(c2)OCO3)C(=O)CCC(=O)Nc2ccccn2)c1C | -32 | nt | 5.1 | -9 | 6%
COc1ccc(OC)c(CNC(=O)COc2cc(=O)n(C)c3ccccc23)c1 | -30 | 17 | -4.4 | nt | -11%
O=C(NCCc1ccc(Cl)cc1)C1CCN(S(=O)(=O)c2cccc3nonc23)CC1 | 6 | 1 | -2.1 | -9 | -4%
Cc1ccc(C(=O)NC(=S)NNC(=O)c2ccccc2)cc1 | nt | 97 | -0.1 | nt | nt
CC(C)c1ccc(S(=O)(=O)N2CCN(C(=O)c3cc([N+](=O)[O-])ccc3N3CCOCC3)CC2)cc1 | nt | -2 | 18 | nt | nt
O=C(NCCCCCNC(=O)c1ccco1)c1ccco1 | -19 | -2 | 0.7 | -2 | 0%
Cc1ccc(S(=O)(=O)N(C)C)cc1NC(=O)COC(=O)Cc1ccc(Br)cc1 | nt | -3 | 1.4 | 13 | 6%
O=C(Nc1ccc2ncccc2c1)Nc1ccc2ncccc2c1 | nt | 2 | 2.0 | nt | -2%
CCOc1ccc(C(=O)NCC(=O)OCc2cc([N+](=O)[O-])cc3c2OCOC3)cc1OCC | nt | 5 | nt | 12 | -6%
Cc1nn(-c2ccccc2)c(N2CCCC2)c1/C=N/O | -6 | -4 | -4.5 | 0 | -4%
COc1cc(NC2c3ccccc3C(=O)N2Cc2ccc3c(c2)OCO3)cc(OC)c1 (stereo not given) | nt | -2 | 1.6 | nt | 16%
CCOC(=O)c1cnc(SCC(=O)c2ccc(Cl)cc2)nc1N | -3 | 88 | -1.0 | 7 | 55%
Cc1ccc(C(=O)N2CCN(c3ccc(NC(=O)c4cccs4)cc3)CC2)cc1 | nt | -19 | -2.8 | nt | nt
Cc1ccc(NS(=O)(=O)c2cc(OCC(N)=O)c(C)cc2Cl)cc1 | -22 | 2 | -1.5 | -4 | 1%
CCOC(=O)c1nc(C)sc1-c1ccnn1S(=O)(=O)c1ccc(C)cc1 | nt | -10 | -6.7 | nt | -4%
CCOC(=O)CSc1nnc(CSc2nc3sc4c(c3c(=O)[nH]2)CCC4)n1-c1ccccc1 | -6 | 0 | 0.3 | 6 | 1%
N=c1n(CCO)c2ccccc2n1Cc1ccccc1Cl | -36 | 3 | 0.9 | -10 | 4%
CSc1nsc(SCC(=O)Nc2ccccc2C(N)=O)n1 | nt | 3 | -0.3 | nt | nt
CC(=O)NCC(=O)N(c1c(C)n(C)n(-c2ccccc2)c1=O)C1(C(=O)NC2CCCC2)CCCCC1 | -39 | -2 | -0.2 | 2 | nt | Arbovirus inh repeat=4
OC(CNCCc1ccc(C(F)(F)F)cc1)COc1cccc2ccccc12 (stereo not given) | -34 | 100 | 8.8 | -35 | 5.7µM*

Reprinted from the part before: 3 entries, followed by the next part.
SMILES | YopH PTP inh | Mtb betalactam | RecA splice inh | Arbovirus inh | Mtb H37Rv | others
CSc1nsc(SCC(=O)Nc2ccccc2C(N)=O)n1 | nt | 3 | -0.3 | nt | nt
CC(=O)NCC(=O)N(c1c(C)n(C)n(-c2ccccc2)c1=O)C1(C(=O)NC2CCCC2)CCCCC1 | -39 | -2 | -0.2 | 2 | nt | Arbovirus inh repeat=4
OC(CNCCc1ccc(C(F)(F)F)cc1)COc1cccc2ccccc12 (stereo not given) | -34 | 100 | 8.8 | -35 | 5.7µM*
CCOC(=O)C1(Cc2ccccc2)CCN(Cc2ccon2)CC1 | nt | -1 | 3.2 | -2 | -4%
CCN(CC)CCCNC(=O)c1cc(-c2ccc3c(c2)OCO3)on1 | nt | 7 | 0.1 | nt | nt
CC1CCCN(c2nc3c(c(=O)n(C)c(=O)n3C)n2CCSc2nc3ccccc3s2)C1 (stereo not given) | -20 | 11 | 5.3 | -17 | 11%
CCOc1ccccc1Nc1nc2ccccc2n1C(C)C | nt | 3 | -4.8 | -5 | 6%
Cc1ccc(COc2cccc(/C=N/NC(=O)c3nnn(-c4nonc4N)c3C)c2)cc1 | nt | 3 | -0.5 | nt | nt
COc1cccc(C(=O)Nc2nnc(S(=O)(=O)N(C)c3ccccc3)s2)c1 | nt | 21 | 0.2 | nt | nt
Cc1cc(Br)ccc1NC(=O)CNC(=O)Cn1ncc(Cl)c(Cl)c1=O | nt | 8 | 2.9 | -21 | 3%
Cc1ccc(-n2c(O)c(C=NCC3CCCO3)c(=O)[nH]c2=O)c(C)c1 (stereo not given) | nt | -5 | 0.3 | nt | -4%
CN(c1ccc(OCC(=O)OCC(=O)NC2CCCC2)cc1)S(=O)(=O)c1ccc2ccccc2c1 | nt | -5 | 2.7 | 2 | -1%
CC(C)CNC(=O)COC(=O)c1cc(Cl)cc(Cl)c1N | -16 | 8 | nt | 5 | -19%
COc1ccc(N2CCN(C(=O)c3ccccc3N(C)S(=O)(=O)c3ccc(C)cc3)CC2)cc1 | nt | -4 | 1.1 | nt | nt
O=C(O)CCCNC(=O)CC1S/C(=N/N=C/c2ccccc2O)NC1=O (stereo not given) | nt | 11 | 5.0 | 2 | 6%
Cn1cccc1-c1nc2ccc(NC(=O)c3cccs3)cc2[nH]1 | -21 | -2 | 5.2 | -24 | -7%
O=C(N/N=C/c1cccc([N+](=O)[O-])c1)c1ccc(COc2ccccc2-c2ccccc2)cc1 | -14 | 11 | -1.3 | 0 | 11%
Clc1ccccc1CN1CCN(c2ncccn2)CC1 | nt | -2 | -0.2 | nt | nt
O=C(CSc1ccc(Cl)cc1)N1CCN(c2ncc(C(F)(F)F)cc2Cl)CC1 | -37 | 81 | 0.4 | 13 | 8%
Cc1ccc(NC(=O)N(Cc2cccnc2)Cc2ccco2)cc1C | -100 | -3 | 0.3 | 1 | -1%
Cc1ccc(C(C(=O)NC2CCCC2)N(Cc2cccnc2)C(=O)c2snc(C(N)=O)c2N)o1 (stereo not given) | -24 | 1 | 1.5 | -3 | 3%
Cc1cc(N2CCN(S(=O)(=O)c3ccc(C)c(C)c3)CC2)c2ccccc2n1 | -6 | -10 | 2.2 | -24 | 1%
COC(=O)CSc1nnc(-c2ccc(S(=O)(=O)N3CCC(C)CC3)cc2)o1 | -32 | 100 | nt | 4 | ?
CCOc1ccccc1NC(=S)NC(=O)CCCOc1ccc(Cl)cc1Cl | -13 | 12 | 4.9 | 6 | -1%
COc1ccc(CC(=O)NNC(=O)c2ccncc2)cc1 | nt | -5 | -1.4 | 8 | 0%
CC(C)C[C@@H](C(=O)N[C@@H](C(=O)O)c1ccccc1)N1C(=O)N2CCc3c([nH]c4ccccc34)[C@@]2(C)C1=O | nt | -8 | 11 | nt | nt
CC(=O)C1=C(O)C(=O)N(c2cccnc2)C1c1ccc([N+](=O)[O-])cc1 (stereo not given) | nt | 3 | -0.3 | 4 | -2%
Cn1c(-c2ccc(Cl)cc2)ccc(C#N)c1=O | -39 | 3 | 1.2 | -24 | -5%

Some of these compounds in order of number of heavy atoms, largest number first:
SMILES | YopH PTP inh | Mtb betalactam | RecA splice inh | Arbovirus inh | Mtb H37Rv | others
Cc1ccc(C(C(=O)NC2CCCC2)N(Cc2cccnc2)C(=O)c2snc(C(N)=O)c2N)o1 (stereo not given) | -24 | 1 | 1.5 | -3 | 3%
O=C(CSc1ccc(Cl)cc1)N1CCN(c2ncc(C(F)(F)F)cc2Cl)CC1 | -37 | 81 | 0.4 | 13 | 8%
CCOc1ccccc1NC(=S)NC(=O)CCCOc1ccc(Cl)cc1Cl | -13 | 12 | 4.9 | 6 | -1%
CCN(CC)CCCNC(=O)c1cc(-c2ccc3c(c2)OCO3)on1 | nt | 7 | 0.1 | nt | nt
CCOC(=O)C1(Cc2ccccc2)CCN(Cc2ccon2)CC1 | nt | -1 | 3.2 | -2 | -4%

Continued:
SMILES | YopH PTP inh | Mtb betalactam | RecA splice inh | Arbovirus inh | Mtb H37Rv | others
COc1cccc(N2CCN(C(=O)c3c(C)nn(-c4ccccc4)c3C)CC2)c1 | nt | 7 | -1.5 | 2 | 5%
CSc1ccc(/C=N/NC(=O)c2ccc(O)cc2)cc1 | -44 | 3 | 5.6 | -16 | 2%
COc1ccc(S(=O)(=O)NCC2CCCN(C(=O)CC3CCCC3)C2)cc1 (stereo not given) | nt | -5 | 0.8 | -1 | 0%
CCc1ccc2c(c1)c(N=NC1=NC(=O)CS1)c(O)n2CC | -39 | 95 | 2.3 | 9 | 16%
Cn1c(Cl)nc2ccccc21 | -14 | 10 | 1.7 | -7 | -2%
CC1CCCCN1CC(=O)Nc1ccc(N2CCCCCC2)cc1 (stereo not given) | nt | -2 | -2.3 | -24 | 7%
O=C1COCCOCCOCCOCC(=O)NCCN1 | nt | -5 | -3.0 | 3 | 8%
Cc1[nH]c2ccccc2c1C(C[N+](=O)[O-])c1ccco1 (stereo not given) | nt | -4 | -5.2 | -6 | -7%
COc1ccc(/C=C2/SC(=S)N(CCCC(=O)Nc3ccccc3C(=O)O)C2=O)cc1 | nt | 8 | 23 | nt | nt
CCn1c(=O)c(C(=O)NNC(=O)c2ccccc2Br)c(O)c2ccccc21 | nt | 1 | 0.0 | nt | nt
CCCOc1ccc(C2C(C(=O)c3ccco3)=C(O)C(=O)N2CCN2CCOCC2)cc1OC (stereo not given) | -3 | 5 | 0.8 | 1 | nt
CSCCC(NC(=O)c1ccc(Cl)cc1)C(=O)OCC(=O)c1ccc[nH]1 (stereo not given) | 6 | -1 | 1.2 | 2 | -7%
Cc1ccc2oc(C(=O)N3CCN(CC(=O)NC(C)C)CC3)c(C)c2c1 | nt | 4 | 0.3 | nt | nt
CCC(=O)Nc1nnc(S(=O)(=O)N(CC)c2cc(C)cc(C)c2)s1 | nt | -1 | -0.6 | nt | nt
O=C(COC(=O)c1c(Cl)ccc(Cl)c1Cl)NC(=O)NCc1ccccc1 | -18 | 8 | 3.1 | 3 | -2%
O=C(NC1CCN(S(=O)(=O)c2cccc(Cl)c2)CC1)C1CCCCC1 | nt | -8 | -3.8 | nt | nt
O=C1CCN(Cc2cccnc2)CCN1[C@H](CO)c1ccccc1 | nt | -11 | -0.3 | nt | nt
COc1ccccc1N1CCN(C(=O)c2ccc(N3CCCCS3(=O)=O)cc2)CC1 | nt | 6 | -3.1 | nt | nt
COc1ccc(CCN=C(N)NS(=O)(=O)c2ccc(F)cc2)cc1 | nt | 4 | -1.7 | 1 | -4%
Brc1cc2c(cc1-c1nc3ccccc3s1)OCO2 | nt | 1 | -0.8 | nt | nt
CCOc1ccc(NC(=O)CN(C)C(=O)CCc2ccccc2Cl)cc1OCC | nt | ? | 1.8 | nt | nt
CCOc1ccc(OCC(=O)OC(C)C(=O)Nc2ccc(Cl)cn2)cc1 (stereo not given) | nt | 14 | 1.5 | nt | nt
COCCn1c(SCc2nc3sc(C(=O)OC)c(C)c3c(=O)[nH]2)nc2ccccc21 | -35 | -1 | 0.4 | 16 | -4%
Cc1ccc(N2CN=c3s/c(=C\c4cccnc4)c(=O)n3C2)cc1 | -52 | 36 | -0.4 | 22 | 3%
C/C=C/n1ccnc1CC(O)(c1ccccc1)c1ccc(C)cc1 (stereo not given) | nt | -1 | 2.6 | nt | nt
(listing goes on)
SMILES | YopH PTP inh | Mtb betalactam | RecA splice inh | Arbovirus inh | Mtb H37Rv | others
Cc1ccc2c(c1)NC(=O)C(CC(=O)NC1CCCCC1C)O2 (stereo not given) | -22 | ? | -0.2 | 1 | -2%
Cc1ccc2c(c1)N(CCCC(=O)NCCCN1CCCC1=O)C(=O)CO2 | -4 | -1 | 0.0 | -1 | nt | Arbovirus inh repeat=2
CC(C)c1nc2sc3c(=O)[nH]cnc3c2c2c1CCCC2 | nt | 3 | -1.1 | nt | -2%
Cc1nc2ccccc2n1CC(O)COCC1CC=CCC1 (stereo not given) | -22 | -2 | 0.8 | 7 | -8%
Cc1ccsc1C1C(C#N)=C(N)N(N(C)C)C2=C1C(=O)CCC2 (stereo not given) | nt | 9 | -1.8 | 14 | 1%
CCc1ccc(C(=O)COC(=O)c2ccc(-c3nnc(-c4ccccc4)o3)cc2)cc1 | -14 | 55 | 5.2 | -4 | -8%
CC(C)n1cnnc1SCC(=O)Nc1ccc(Br)cc1F | nt | -2 | 0.0 | -1 | 0%
O=C(NC1CCCCC1)C1CCCN1C(=O)Nc1ccccc1 (stereo not given) | nt | -1 | -1.0 | nt | nt

From PubChem BioAssay
